Compound activity from PubChem.
Sfp inh – Sfp phosphopantetheinyl transferase inhibition; Q9F4F7; Potency, µM, for the others: max response, negative = inhibition, actives largely listed as inhibitors; AID 1490; Biochemical Sfp PPTase activity, qHTS; 310,000 compounds, 3.5% hits; active = well fitted inhibition curve with a large enough effect; inconclusive = small, poorly fitted or top-dose-only effect, or another doubt; inactive = no such curve, though single readings can be large or run the other way;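 note: the enzyme is Sfp with the accession as filed and its product quenches rhodamine fluorescence; potency is the fitted concentration of half-maximal effect; 0% = enzyme reaction without inhibitor and -100% = no enzyme wells; top concentration of the series not given in the record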
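Reaction rates are the 30-min fluorescence difference (ex 525, em 598 nm) in wells containing 15 nM Sfp, 5 uM rhodamine-CoA and 12.5 uM BHQ-2-YbbR at pH 7.6 with 10 mM MgCl2.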
D2 potentiator – positive allosteric modulators of human D2 dopamine receptor; DiscoveRx D2 beta-arrestin cells, luminescence, 90 min; 100% = 57 uM dopamine signal; potentiation, % (concentration not given with the values); 360,000 compounds, 0.23% hits; active = potentiation of 50% or more; inconclusive = 30% to 50%; inactive = 30% or less;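 note: tested on top of an EC20 dose of dopamine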
Target sequence (P14416 whole entry, looked up): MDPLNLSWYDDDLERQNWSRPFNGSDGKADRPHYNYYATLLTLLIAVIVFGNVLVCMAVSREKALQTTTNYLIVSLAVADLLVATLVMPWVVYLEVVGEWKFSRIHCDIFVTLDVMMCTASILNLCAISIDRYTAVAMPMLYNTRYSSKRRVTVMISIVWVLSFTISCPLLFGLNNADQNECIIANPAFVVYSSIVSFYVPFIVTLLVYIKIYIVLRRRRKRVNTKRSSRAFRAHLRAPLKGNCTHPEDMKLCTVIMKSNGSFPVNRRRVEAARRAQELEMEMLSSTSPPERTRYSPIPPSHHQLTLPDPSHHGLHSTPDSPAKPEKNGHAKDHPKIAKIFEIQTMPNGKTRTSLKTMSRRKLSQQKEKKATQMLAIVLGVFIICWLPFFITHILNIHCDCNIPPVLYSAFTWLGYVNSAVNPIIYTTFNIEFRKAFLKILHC
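PathHunter D2 cells, attached overnight at 37 deg C, received compound in DMSO plus dopamine at EC20 (50 nM final) for 90 min at 37 deg C. Beta-arrestin recruitment was read as luminescence after 1 h with detection reagent at ambient temperature.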
Six1-Eya2 blk – inhibitors of human Six1/Eya2 interaction. Q15475+O00167. AlphaScreen GST-Six1/His-Eya2 binding, biochemical; hits give low values; control for the full effect not named in the record. activity change, % (test concentration not listed). 360,000 compounds, 0.56% hits. AID 651725; in the data active = activity change below about -65%; inconclusive = about -30% to -65%; inactive = above about -30%; note: % is set by controls: 0 for no effect and ±100 for the full control effect
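AlphaScreen with GST-Six1 and His-Eya2 (5X mix: 250 nM and 500 nM), glutathione donor and nickel acceptor beads; buffer 50 mM Tris pH 8.0, 300 mM NaCl, 1 mM TCEP; 1 h at 37 C in the dark.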
TRPV1 PAM – potentiators of human vanilloid receptor 1 (TRPV1); Q8NER1; TRPV1-expressing cells, Fluo-8 calcium influx, capsaicin EC20 potentiation; host cell line not named in the record; control for the full effect not named in the record; potentiation, % at 8.33 µM; 320,000 compounds, 0.02% hits; AID 540277; active means potentiation above 80%; inconclusive means 30% to 80%; inactive means below 30%; note: 0% is about no effect
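Fluo-8 calcium influx in TRPV1-expressing cells, kinetic read (ex 480/em 520 nm). Compound added and read 3 min for agonist activity, followed by capsaicin at EC20 final and 2 min further read for enhancement.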
CtBP-E1A inh – blocks the CtBP interaction with E1A; AlphaScreen GST-E1A/His-CtBP binding, 1536-well; hits give low values; control for the full effect not named in the record; activity change, % (concentration not given with the values); 340,000 compounds, 0.49% hits; in the data active means activity change below about -65%; inconclusive means about -30% to -65%; inactive means above about -30%; note: % is set by controls: 0 for no effect and ±100 for the full control effect
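Homogeneous bead-based format: GST-tagged E1A captured on glutathione donor beads, His-tagged CtBP on nickel acceptor beads; compounds precede bead addition by 2 h at 37 °C.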
D2 ag – human D2 receptor agonism in beta-arrestin assay; 360,000 compounds, 0.084% hits; P14416; activation, % (no concentration beside the values); AID 624465; DiscoveRx PathHunter D2 beta-arrestin, luminescence, 90 min; 100% = 57 uM dopamine signal; in the data active = activation above about 40%; inconclusive = about 15% to 40%; inactive = below about 15%; note: compound concentration not given in the record; the text of the record calls up to 30% inactive
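DiscoveRx PathHunter D2 beta-arrestin cells (2,100/well) attached overnight, then compound-stimulated 90 min at 37 C in HBSS/10 mM HEPES/0.1% Tween-20 buffer; beta-galactosidase complementation read by luminescence after 1 h at ambient temperature. Dopamine 57 uM final (EC100) as control.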
PINK1 expr mod – PINK1 expression modulation | PINK1 immunofluorescence, high-content cytometry, 24 h | Potency, µM (doses to about 76.6 µM), for inactives: at the highest dose activation (PINK1 increase), usual class: activators | 410,000 compounds, 0.2% hits; active = well fitted activation curve with a large enough effect; inconclusive = small, poorly fitted or top-dose-only effect; inactive = flat fitted curve, though single readings scatter; cell line not stated here;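 note: potency is the fitted concentration of half-maximal effect; % of control where 0% means no effect; nearly all actives have a fitted effect of over 65% in size; a mitochondrial uncoupler was the plate control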
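Fluorescence from anti-PINK1 antibody, together with nuclear and cell stains, was scanned on a laser-scanning cytometer. Before staining, stable-line cells were incubated 24 hours with compounds at 5 concentrations; primary antibody 12 h at 10 degrees C.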
Numbers without * were called inactive; ? = inconclusive; / = not tested or not shown; & = joins results of further samples; [ ] = dose if it differs, or a comment.

SMILES	Sfp inh	D2 potentiator	Six1-Eya2 blk	TRPV1 PAM	CtBP-E1A inh	D2 ag	PINK1 expr mod
COc1cccc(-c2sc3ccc(OC)cc3c2-c2ccc(OCCN3CCCCC3)cc2)c1	/	/	-28	/	-19	13	-1.2%
Cc1ccc(C(=O)OCCOc2cccc(Cl)c2)cc1S(=O)(=O)N1CCOCC1	/	2	2	17	1	-5.4	9.6%
O=C(NCCCN1CCOCC1)c1cc2c(s1)CCC2	24%	-20	9	?	5	-3.4	-0.6%
Cc1ccc(NC(=O)C2CCCN(S(=O)(=O)c3cccnc3)C2)c(C)c1 (stereo not given)	21%	-6	1	12	0	1.0	1.1%
CC1(C)C[C@@H](O)[C@]2(C)CC[C@]3(C)C(=CCC4[C@@]5(C)CC[C@H](O)[C@](C)(CO)C5CC[C@]43C)[C@@H]2C1 (stereo not given in full)	/	-28	3	/	7	-6.3	0.4%
CCOC(=O)C1(C)CCCN1C(=O)c1cc(F)ccc1C (stereo not given)	/	-4	3	/	3	-2.9	2.6%
S=C(NCc1ccco1)Nc1ccc(Br)cn1	-11%	3	-4	-9	2	7.9	0.5%
CCCNC(=S)N1CCC(C(=O)c2ccc(Cl)cc2)CC1	13%	-2	0	-8	4	-2.4	3.8%
Cc1nc2ccc3nc(NC(=O)C4COc5ccccc5O4)sc3c2s1 (stereo not given)	14%	-2	-3&3	-2	0	4.8	0.4%&0.8%
CCOc1ccccc1NC(=O)c1nnn(CC(=O)Nc2cc(C)cc(C)c2)c1N	10%	-5	3	5	2	-2.0	2.8%
Cc1ccc(NC(=O)CN2C(=O)NC3(CCCCC3C)C2=O)cc1S(=O)(=O)N1CCOCC1 (stereo not given)	/	-5	2	/	2	-0.1	1.9%
O=C(CSCc1ccc(Br)cc1)Nc1ccc(S(=O)(=O)N2CCOCC2)cc1	17%	-1	-3	-10	12	1.0	-3.5%[38.3 µM]
Cc1ccc(/C=C/C(=O)Nc2ccc([N+](=O)[O-])cc2)o1	14µM*	-13	0	-9	0	-2.0	?
Cc1cc(C)c(NC(=O)CN2CCN(S(=O)(=O)c3ccc4c(c3)OCCO4)CC2)c(C)c1	/	-7	2	/	-7	-3.5	0.5%
Cc1cc(C)cc(-n2c(C)cc(/C=N/NC(=O)c3cccc([N+](=O)[O-])c3C)c2C)c1	10%	-15	-24	5	-18	-2.0	4.3%
CC(C)CCn1c(SCC(=O)NC2CC2)nc2cc(Cl)ccc2c1=O	/	2	4	-22	0	-2.5	7.3%
CCOCCCNCC(=O)NC1(C)C2CCC(C2)C1(C)C (stereo not given)	19%	-31	0	5	1	-5.4	-1.0%
COc1cccc(/C=N/NC(=O)C(C)n2nc(C)c([N+](=O)[O-])c2C)c1O (stereo not given)	16%	-17	-89*	-2	-66*	0.2	1.3%
COc1ccc(CNC(=O)C(OC(=O)c2ccco2)c2ccccc2F)cc1 (stereo not given)	11%	-8	-3	-1	-3	-2.3	0.4%
O=C(NCc1ccc(F)cc1)c1cc(C2CCCN(C(=O)CCCc3ccccc3)C2)on1 (stereo not given)	/	-4	1	/	3	-5.1	1.0%
Cc1ccc(CNC(=O)Cc2ccc(Br)cc2)cc1	28%	-15	19	-8	-10	1.2	3.1%
O=C(COc1ccccc1)N1CCN(C(=O)c2ccc([N+](=O)[O-])cc2)CC1	-2%	-5	8	-19	1	-0.1	-1.1%
CC(=O)c1ccc(-c2ccc(Cn3c(C)nc4cc(N)c(C)nc43)cc2)cc1	5%	-3	0	-3	/	-2.7	2.9%
Cc1ccc(C(=O)COC(=O)COc2ccccc2[N+](=O)[O-])s1	/	-19	-5	9	15	-0.4	0.2%

Some of the entries above, set out differently.
Second line of a record – Sfp inh | D2 potentiator | Six1-Eya2 blk | TRPV1 PAM | CtBP-E1A inh | D2 ag | PINK1 expr mod
- CC(C)CCn1c(SCC(=O)NC2CC2)nc2cc(Cl)ccc2c1=O
    / | 2 | 4 | -22 | 0 | -2.5 | 7.3%
- CCOCCCNCC(=O)NC1(C)C2CCC(C2)C1(C)C (stereo not given)
    19% | -31 | 0 | 5 | 1 | -5.4 | -1.0%
- COc1cccc(/C=N/NC(=O)C(C)n2nc(C)c([N+](=O)[O-])c2C)c1O (stereo not given)
    16% | -17 | -89* | -2 | -66* | 0.2 | 1.3%
- COc1ccc(CNC(=O)C(OC(=O)c2ccco2)c2ccccc2F)cc1 (stereo not given)
    11% | -8 | -3 | -1 | -3 | -2.3 | 0.4%
- O=C(NCc1ccc(F)cc1)c1cc(C2CCCN(C(=O)CCCc3ccccc3)C2)on1 (stereo not given)
    / | -4 | 1 | / | 3 | -5.1 | 1.0%
- Cc1ccc(CNC(=O)Cc2ccc(Br)cc2)cc1
    28% | -15 | 19 | -8 | -10 | 1.2 | 3.1%
- O=C(COc1ccccc1)N1CCN(C(=O)c2ccc([N+](=O)[O-])cc2)CC1
    -2% | -5 | 8 | -19 | 1 | -0.1 | -1.1%
- CC(=O)c1ccc(-c2ccc(Cn3c(C)nc4cc(N)c(C)nc43)cc2)cc1
    5% | -3 | 0 | -3 | / | -2.7 | 2.9%
- Cc1ccc(C(=O)COC(=O)COc2ccccc2[N+](=O)[O-])s1
    / | -19 | -5 | 9 | 15 | -0.4 | 0.2%

(further entries)
SMILES	Sfp inh	D2 potentiator	Six1-Eya2 blk	TRPV1 PAM	CtBP-E1A inh	D2 ag	PINK1 expr mod
CCOC(=O)C1CCN(S(=O)(=O)c2ccc(NC(=O)c3ccco3)cc2)CC1	5%	28	0	-4	-4	-2.1	0.5%
CCCCN(CCCNC(=O)CN1C(=O)COc2ccc(S(=O)(=O)N3CCC(C)CC3)cc21)Cc1ccccc1	6%	-1	7	-2	/	4.1	0.6%
C=CCN(c1ccccc1)S(=O)(=O)c1cc2c(cc1C)NC(=O)CO2	4%	-3	-4	14	0	-2.1	-0.9%
COc1ccc(C2(c3ccc(OC(C)=O)cc3OC(C)=O)CC(c3ccccc3)NC(=S)N2)cc1 (stereo not given)	13%	-6	?	2	0	0.2	5.5%
CCOC(=O)C1CCCN(C(=O)c2[nH]c3ccc(OC)cc3c2C)C1 (stereo not given)	2%	-9	-13	11	26	2.1	-0.3%
Cc1ccc2[nH]c3c(c2c1)CN(C(=O)CN1CCCc2ccccc21)CC3	-3%	-7	-20	2	-17	-1.8	3.0%
O=C(CSc1nnc(SCc2ccccc2Cl)s1)N/N=C/c1ccc(C(=O)O)cc1	4%	-9	-16	-13	-18	-9.1	0.0%
COc1ccccc1N1CCN(CC(=O)Nc2cc(C)nn2-c2nc(C)cc(C)n2)CC1	/	-14	0	/	9	-0.4	7.8%
C[C@]12CC[C@H](OC(=O)CCC(=O)O)CC1=CCC1C2CC[C@@]2(C)C1CC[C@@H]2N (stereo not given in full)	/	-5	-5	/	-17	-0.6	-2.2%
O=C(COC(=O)c1ccccn1)Nc1ccc2c(c1)OCO2	26%	-8	-3	3	2	-2.1	0.7%
COc1ccc(-n2nnnc2SCC(=O)NC2CC2)cc1	/	0	24	12	6	-2.7	-0.4%
CC1CCCCN1Cc1ccc(-c2nnn(CC(=O)NC3CCCCC3)n2)cc1 (stereo not given)	?	-2	9	-7	7	-0.7	0.7%
c1cc2cc(-c3c(-c4ccc5c(c4)OCO5)noc3-c3ccsc3)ccc2[nH]1	15%	-7	-10	8	-6	1.5	-0.3%
COc1ccccc1/C=N/NC(=S)NCc1ccco1	20%	-10	0	0	-5	-4.0	-0.4%
CCc1ccccc1N(CC(=O)O)S(C)(=O)=O	14%	21	3	0	7	-1.0	0.5%
Cc1nc(-c2ccncc2)nc(NCCNc2ncccc2C(F)(F)F)c1Cl	8%	-56	-3	13	/	-4.4	3.1%
Cc1nc(-c2ccc(Cl)cc2)sc1C1(C)CC(c2ccccc2F)=NO1 (stereo not given)	-8%	-6	5	-7	-2	1.7	1.7%
COc1ccc(/C(C)=N/NC(=O)OC(C)(C)C)cc1[N+](=O)[O-]	16%	-13	-3	0	/	-5.2	0.6%
COc1ccc(Cl)cc1Cn1c(C)c(C(=O)N(C)Cc2ccc(F)cc2)sc1=O	/	-6	1	/	-6	-3.5	-0.7%
COc1ccccc1C(C)NC(=O)c1cc(S(=O)(=O)N2CCCCC2)ccc1C (stereo not given)	/	-7	-8	-12	/	-3.8	1.3%
Cc1cc(C(=O)N(C)C2CCCCC2)no1	4%	-9	1	-8	3	-16	-0.8%
CC(C)Oc1cccc(C(=O)C2CCCN(Cc3cnn(C(C)C)c3)C2)c1 (stereo not given)	9%	-19	4	-5	-1	-4.0	-1.0%
CCOc1ccc(CCNC(=O)COC(=O)COc2ccc(Cl)cc2)cc1OCC	/	-29	-10	-5	-1	-4.9	-1.0%
O=C(CCc1nc2ccccc2[nH]1)Nc1ccccc1F	19%	-4	14	-8	26	-0.6	1.4%
COc1ccc(NC(C)C(=O)N/N=C/c2ccccc2OCc2cccc(Br)c2)cc1 (stereo not given)	5%	-6	?	-1	?	1.3	5.1%
COc1ccc2c(-c3ccccc3)cc(SCC(=O)N(C)C3CCS(=O)(=O)C3)nc2c1 (stereo not given)	?	-13	-14	-11	/	-6.0	-0.2%
c1ccc(-c2noc(-c3ccncc3)n2)nc1	19%	12	-2	11	9	-2.9	/
COc1ccc(S(=O)(=O)N(CC(=O)NC(C)C)Cc2ccccc2)cc1	-19%	-3	3	10	4	-1.0	?
CCn1c(=O)n(CC)c2cc(N3CCCC3)c(NC(=O)c3cc(Br)ccc3OC)cc21	?	-6	4	-11	/	-1.6	3.3%
COc1ccc(N=[N+]([O-])c2ccc(OC)cc2)cc1	/	-7	2	/	0	-0.2	2.6%
CCOC(=O)c1ccc(N(C(=O)c2cnccn2)C(C(=O)NC2CCCCC2)c2cn(C)nc2C)cc1 (stereo not given)	16%	-16	5	7	-1	1.5	/
COc1ccccc1-n1c(C)cc(C=O)c1C	7%	-17	-11	-6	1	-3.1	1.0%
COc1ccc(C(=O)Nc2nnc(S(=O)(=O)N3CCCCCC3)s2)cc1OC	10%	-3	-11	22	?	-3.8	2.8%&0.9%
